VDR inhibitor: Inhibitors of the vitamin D receptor (VDR): qHTS; VDR-SRC2-3 peptide fluorescence polarization, 2 h; Potency, µM, for the others: max response, negative = inhibition, usual class: inhibitors; AID 504847, 2011; actives 0.93% (n = 400,000); Vitamin D3 receptor (Homo sapiens), P11473; active means well fitted inhibition curve with a large enough effect; inconclusive means small, poorly fitted or top-dose-only effect, or another doubt; inactive means no such curve, though single readings can be large or run the other way; further: series mostly up to about 120 µM
Target sequence (P11473 whole entry, looked up): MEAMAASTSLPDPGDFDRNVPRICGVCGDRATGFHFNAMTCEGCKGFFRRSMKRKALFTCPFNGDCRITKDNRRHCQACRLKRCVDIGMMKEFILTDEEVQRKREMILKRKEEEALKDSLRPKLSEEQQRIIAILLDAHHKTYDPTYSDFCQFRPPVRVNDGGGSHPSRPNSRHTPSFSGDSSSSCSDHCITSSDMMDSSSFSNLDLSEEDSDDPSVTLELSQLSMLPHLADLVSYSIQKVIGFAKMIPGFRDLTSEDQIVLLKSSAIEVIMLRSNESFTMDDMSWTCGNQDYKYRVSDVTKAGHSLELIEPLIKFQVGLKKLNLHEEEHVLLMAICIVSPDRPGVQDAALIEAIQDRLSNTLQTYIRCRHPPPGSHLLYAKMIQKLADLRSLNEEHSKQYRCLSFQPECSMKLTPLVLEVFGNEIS
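Fluorescence polarization assay of small-molecule disruption of VDR binding to coregulator peptide SRC2-3. Compounds and controls pin-transferred, then read after 2 h incubation at ambient room temperature.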
An asterisk follows results filed as active; ? = inconclusive; & = joins results of further samples; [ ] = another dose, or the depositor's remark. On the % scale 0 is the no-effect control and ±100 the full control effect; potency means the concentration at half of the fitted maximal effect. An excerpt; count on the stated rates, not on these rows.

SMILES	VDR inhibitor
COc1ccc(NC(=O)c2ccc3c(c2)n(C)c(=O)n3C)cc1	-22%
CNCC(O)CN(c1ccccc1)c1ccccc1 (centres undefined)	-17%
CCC(=O)Nc1ccc2nc(SCC(=O)N3CCOCC3)sc2c1	1%
Cc1sc2nc(CSCC(=O)NC(C)(C)C)[nH]c(=O)c2c1C	-7%
COc1ccc(C(=O)Nc2ccccc2-c2nc3ccccc3s2)cc1OC	-8%
NC(=O)[C@@H]1CCCN1Cc1c(C(=O)N2CCc3ccccc3C2)nc2ccc(Cl)cn12	15%
COc1cc(-c2cc(C(=O)OCC(=O)Nc3ccc4c(c3)OCO4)c3ccccc3n2)cc(OC)c1OC	4%
Cc1ccc2c(=O)cc(C(=O)NC3CCS(=O)(=O)C3)oc2c1 (centres undefined)	2%
CCOC(=O)N1CCN(C(=O)C(=O)NNC(=O)COc2ccc(Cl)cc2)CC1	-4%
Cc1cc(C)n(-c2ccc(NC(=O)C3CCCCN3C(=O)c3cc(C)oc3C)cc2)n1 (centres undefined)	-23%
COc1cc([N+](=O)[O-])ccc1Nc1nc(C)cc(C)n1	-10%
Cc1nc2nc(NC(=O)c3ccc(F)cc3)[nH]n2c(=O)c1Cc1ccccc1	16%
Cc1ccsc1C(=O)N(C)C1CCS(=O)(=O)C1 (centres undefined)	20%
Cc1cc(NC(=O)c2ccco2)cc(-c2nc3ccccc3o2)c1O	-3%
NC(C(=O)O)(c1ccc(P(=O)(O)O)cc1)C1CC1 (centres undefined)	-1%
Cn1c2ccccc2c2cc(/C=N/NC(=O)c3ccccc3F)ccc21	12%
O=C(OCC(=O)N(C1CCCCC1)C1CCCCC1)c1ccc(O)cc1	-5%
COC(=O)c1ccc(Cl)cc1NC(=O)N1CC2CCCN2c2ccccc21 (centres undefined)	0%
CC1CC(C)CN(C(=O)C2CCN(S(=O)(=O)c3ccc4c(c3)CC(C)N4C(=O)C3CC3)CC2)C1 (centres undefined)	0%
O=C1CSC(c2ccccc2)N1c1ccc(F)cc1F (centres undefined)	-5%
Cc1nc2ccc(C(=O)N3CCN(c4ccccn4)CC3)cc2s1	2%
O=S(=O)(NC1=NCCCCC1)c1ccc(F)cc1F	5%
COC(=O)c1c(NC(=O)C(=O)N2CCOCC2)sc2c1CCC2	-7%
Cc1ccc(C)c(Nc2ncnc3nc[nH]c23)c1	-1%
COc1cc(C=O)ccc1OCCOCCOc1ccccc1Cl	0%
Cc1onc(-c2ccccc2)c1-c1csc(N/N=C/c2ccccc2Cl)n1	23%
Cc1cc(C)cc(OCCCn2c(-c3ccc(Cl)cc3)nc3ccccc3c2=O)c1	-19%
Cc1nc(NCCOc2ccccc2)sc1C(=O)Nc1ccccc1	-15%
CCCCCn1c(N)c(-c2nc3ccccc3o2)c2c([N+](=O)[O-])nn(CC)c(=O)c21	-17%
COc1ccc2c(-c3ccc(OCCN4CCOCC4)cc3)c(-c3ccccc3OC)sc2c1	-6%
COc1ccc(/C=C(\NC(=O)c2cccs2)C(=O)Nc2ccc(C)cc2)cc1OC	-23%
O=C(N1CCCCCC1)N1CCN(S(=O)(=O)c2cccc([N+](=O)[O-])c2)CC1	3%
COc1cc([N+](=O)[O-])c2ncsc2c1	-11%
CCC(C)n1cnc2c(c1=O)c1nc3ccccc3nc1n2Cc1ccc(OC)cc1 (centres undefined)	1%
CCC(=O)N1CCc2cc(CNC(=O)c3ccccc3C)ccc21	1%
COC(=O)c1cc2sccc2n1CC(=O)Nc1cccc(SC)c1	-3%
COC(=O)c1sccc1NC(=S)N1CCC(C)CC1	?
CC(C)(C)c1ccc(NC(=O)c2c(F)cccc2Cl)cc1	19%
O=C(c1cc(COc2cccc(C(F)(F)F)c2)on1)N1CCC(c2ccccc2)CC1	-3%
O=C(CN1CCN(c2nc(-c3ccccc3)cs2)CC1)NNC(=O)c1ccc(Br)cc1	8%
CN1CCN(c2ccccc2NC(=O)c2cccc([N+](=O)[O-])c2)CC1	0%
COc1ccc2c(c1)O[C@@H]1c3ccc(OC)cc3OCC21 (some centres undefined)	-7%
Cc1cc(N2CCC(C)CC2)n2nc(C)c(-c3ccccc3)c2n1	-2%
COC(=O)c1ccc(N2CCN(S(=O)(=O)c3ccc4ccccc4c3)CC2)c([N+](=O)[O-])c1	-10%
COC(=O)C(NC(=O)c1ccccc1)c1ccccc1 (centres undefined)	-5%

Seven records drawn at random from the list so far:
SMILES	VDR inhibitor
O=C(N1CCCCCC1)N1CCN(S(=O)(=O)c2cccc([N+](=O)[O-])c2)CC1	3%
COC(=O)c1sccc1NC(=S)N1CCC(C)CC1	?
CCC(C)n1cnc2c(c1=O)c1nc3ccccc3nc1n2Cc1ccc(OC)cc1 (centres undefined)	1%
COC(=O)c1ccc(N2CCN(S(=O)(=O)c3ccc4ccccc4c3)CC2)c([N+](=O)[O-])c1	-10%
O=C(CN1CCN(c2nc(-c3ccccc3)cs2)CC1)NNC(=O)c1ccc(Br)cc1	8%
CN1CCN(c2ccccc2NC(=O)c2cccc([N+](=O)[O-])c2)CC1	0%
COc1ccc(/C=C(\NC(=O)c2cccs2)C(=O)Nc2ccc(C)cc2)cc1OC	-23%

Further results follow.
SMILES	VDR inhibitor
CSc1ccc(CCNC(=O)CCc2nnc3ccc(N4CCCCC4)nn23)cc1	-8%
Cc1cc(C)c2oc(-c3cccc(NC(=O)c4ccc(F)cc4)c3)nc2c1	2%
CCCNC(=O)c1ccc(Cn2c(SCC(N)=O)nc3ccccc3c2=O)cc1	-2%
O=C(c1ccc(F)cc1)N1CCCN(c2nc(-c3ccccc3)ns2)CC1	10%
C=C1CCC[C@]2(C)C[C@H]3OC(=O)[C@H](CNCCc4ccccc4OC)C3CC12 (some centres undefined)	-15%
CSc1ccc2c(c1)N(CC[C@H]1CCCCN1C)c1ccccc1S2	6%
CCOC(=O)c1cnc2c(ccc3ccccc32)c1Nc1ccc(OC)c(OC)c1	7%
Cc1cc(Nc2ccc(Cl)cc2)nc(N2CCOCC2)n1	-10%
c1csc(Cc2nn3c(-c4n[nH]c5c4CCC5)nnc3s2)c1	-19%
N#CCSc1nc2cc(C(=O)N3CCCC3)ccc2c(=O)n1Cc1ccccc1	-8%
CC1CCN(Cc2c(O)ccc3c2O/C(=C\c2ccco2)C3=O)CC1	4%
CNC(=O)c1[nH]nc2c1CCc1cc(OC)ccc1-2	-12%
COc1ccc(C(=O)COC(=O)c2cc(-c3ccccc3)nc3c(C)cccc23)cc1	3%
CC(=O)N(Cc1cccnc1)c1nc2ccc(F)cc2s1	7%
COc1cc(/C=N/NC(=O)C2(O)c3ccccc3-c3ccccc32)ccc1O	32%[activator]
Cc1cccc(N2CCN(C(=O)c3cc4cc(F)ccc4[nH]3)CC2)c1C	-15%
CC(=O)c1cccc(NC(=O)c2cc3nc(C)cc(C)n3n2)c1	10%
COc1ccc(Cl)cc1N1C(=O)c2cccnc2C1=O	9%
Cc1ccccc1Nc1nc(N)nc(CSc2nc3ccccc3c(=O)n2CCCO)n1	9%
Cc1ccccc1Nc1nc(N)nc(COC(=O)c2cccc(S(=O)(=O)N(C)c3ccccc3)c2)n1	8%
CCOc1cc(C(=O)Nc2cc(C(=O)OC)ccc2C)ccc1OCC(=O)N1CCOCC1	6%
Cc1ccc(Cl)cc1NC(=O)CCC(=O)NCc1ccco1	3%
CCn1c(C)cc(O)cc1=O	-5%
O=C(CSCCO)N1CCc2ccccc21	-1%
COc1ccc(NC(=O)c2cc(CN3CCCC3)on2)cc1Cl	15%
CCCc1cc(SCC(=O)Nc2c(C)n(C)n(-c3ccccc3)c2=O)n2c(nc3ccccc32)c1C#N	8%
Cc1c(Cl)c([N+](=O)[O-])nn1CC(=O)N1CCc2ccccc2C1	-2%
CSc1ccc(C(=O)C2CCCN(C(=O)c3ccc(C)nc3)C2)cc1 (centres undefined)	1%
COc1ccc(N2CC(NC(=O)COc3ccccc3)CC2=O)cc1OC (centres undefined)	1%
COc1ccc(NS(=O)(=O)c2cc3c(cc2C)NC(=O)CO3)c(OC)c1	-5%&3%
O=C(NCC1CCCN1S(=O)(=O)c1cccs1)C(=O)Nc1ccccc1 (centres undefined)	5%
Cc1ccc(/C=C2\SC(=S)N(CCC(=O)NNC(=O)c3cccc(O)c3)C2=O)cc1	-14%
CCCCCCC(=O)N1CCC(c2nc3c(nnn3Cc3ccccc3Cl)c(=O)[nH]2)CC1	-7%
O=C(COc1ccc(F)cc1)NCCN1CCCC1	-5%
COc1ccc(CN(C)C2CCN(C)CC2)cc1OC	-3%
Cc1sc2ncnc(N3CCC(C(=O)Nc4ccc(OC(F)F)c(Cl)c4)CC3)c2c1C	-26%
CSc1nnc(Cc2ccc3c(c2)OCO3)o1	-10%
O=C(CCc1nc2ccccc2c(=O)[nH]1)NCCN1C(=O)S/C(=C\c2ccccc2Cl)C1=O	-7%
CCN(CC)c1ccc(NC(=O)c2ccccc2F)cc1	13%
COc1cc(Br)c(-c2sc(Nc3ccccc3)n[n+]2-c2ccc(F)cc2)cc1OC	-20%
COc1cccc(-c2noc(C3CCCN(C(=O)c4ccc(F)cc4F)C3)n2)c1 (centres undefined)	4%
Cc1ccc(C(=O)Nc2ccc(F)cc2)cc1S(=O)(=O)N1CCOCC1	0%
COC(=O)C1=CO[C@@H](O[C@@H]2OC(CO)[C@@H](O)[C@@H](O)[C@@H]2O)C2C1CC[C@]2(C)O (some centres undefined)	4%
CCCCCCCCN1[C@@H](CC(=O)O)c2cc(F)ccc2S1(=O)=O	-6%
COCCn1c(SCc2nnc(-c3ccc(OC)c(OC)c3)o2)nnc1-c1ccncc1	-18%

Laid out differently: results already given
mol: CCCCCCCCN1[C@@H](CC(=O)O)c2cc(F)ccc2S1(=O)=O
  VDR inhibitor = -6%
mol: COC(=O)C1=CO[C@@H](O[C@@H]2OC(CO)[C@@H](O)[C@@H](O)[C@@H]2O)C2C1CC[C@]2(C)O (some centres undefined)
  VDR inhibitor = 4%
mol: Cc1ccc(C(=O)Nc2ccc(F)cc2)cc1S(=O)(=O)N1CCOCC1
  VDR inhibitor = 0%
mol: CSc1nnc(Cc2ccc3c(c2)OCO3)o1
  VDR inhibitor = -10%

The list goes on.
SMILES	VDR inhibitor
CN1C(=O)NC(NC(=O)c2ccco2)(C(F)(F)F)C1=O (centres undefined)	-13%
Clc1ccc(-c2nc3ccncc3[nH]2)cc1	-24%
COC(=O)/C(C#N)=C/c1c(N2CCN(c3ccccc3)CC2)nc2ccccn2c1=O	-7%
C[C@H](NC(=O)c1ccccc1Cl)C(=O)OCCOc1ccc(Cl)cc1	-15%
Cc1cccc(NC(=S)NC(C)CCc2ccccc2)c1 (centres undefined)	-2%
CC1CC(=O)NN=C1c1ccc(N)c([N+](=O)[O-])c1 (centres undefined)	5%
COc1ccc(NC(=O)c2ccc3c(c2)C(=O)N(Cc2ccncc2)C3=O)cc1S(N)(=O)=O	15%
COC(=O)c1ccc(NC(=O)C2CC3CCC2C3)cc1 (centres undefined)	-5%
Cc1ccc(C(=O)OCCN(C)Cc2ccccc2)cc1	10%
CCCCN(C(=O)CC1OC(=O)c2ccccc21)c1c(N)n(CCCC)c(=O)[nH]c1=O (centres undefined)	16%
O=c1c2ccccc2c(C=NC2CCS(=O)(=O)C2)c(O)n1-c1ccccc1 (centres undefined)	-12%
Cc1cccc(-c2noc(CN(C(=O)c3ccc4c(c3)OCO4)C(C)C)n2)c1	-8%
O=C(/C(=C/c1cccnc1)n1ccnc1)c1ccc(Cl)cc1Cl	50µM*
Cc1cc(C(=O)N/N=C/c2c(C)nn(-c3ccccc3)c2C)c(C)o1	-4%
CC(C)c1nc2ccc(C(=O)NCc3ccc(F)cc3)cc2o1	8%

Some of these compounds in order of SMILES length, low to high:
SMILES	VDR inhibitor
Cc1cccc(NC(=S)NC(C)CCc2ccccc2)c1 (centres undefined)	-2%
CC(C)c1nc2ccc(C(=O)NCc3ccc(F)cc3)cc2o1	8%
C[C@H](NC(=O)c1ccccc1Cl)C(=O)OCCOc1ccc(Cl)cc1	-15%
COC(=O)/C(C#N)=C/c1c(N2CCN(c3ccccc3)CC2)nc2ccccn2c1=O	-7%

Further records
SMILES	VDR inhibitor
CC(C)Cc1nc2ccccc2n1CCc1ccccc1	2%
O=C(CSc1nccn1Cc1ccc(Cl)cc1)Nc1nc2ccccc2s1	5%
Cc1c(C(=O)N2CCN(C(=O)c3ccco3)CC2)sc2nc(-c3ccc(F)cc3)cn12	-10%
Cc1ccc(-n2c(=O)c3c4c(sc3n(Cc3cc(=O)n5cc(Cl)ccc5n3)c2=O)CCC4)cc1C	13%
COc1ccc2c(c1)cc1c(=O)n(CC(=O)NC3CC3)nc(C)n12	?
COc1cc(/C=N/OCC(=O)NC2CCCCC2)ccc1OCc1ccccc1	-3%
CN(C)CCNC(=O)/C(=C/c1ccc(-c2ccc(Cl)cc2)o1)NC(=O)c1ccccc1	-10%
OC(COc1ccc(F)cc1)CN1CCN(CC(O)COc2ccc(F)cc2)CC1 (centres undefined)	1%
O=C(NC(=S)Nc1cccc(C(F)(F)F)c1)c1csnn1	?
Cc1cc(C(=O)OCC(N)=O)c(C)n1-c1ccccc1	79µM*
CC1=C(C#N)c2nc(N)c(C#N)c(C)c2/C1=C\c1ccc(-c2ccccc2C(=O)O)o1	8%
O=C1NC(=S)S/C1=C\c1cc2ccccc2nc1N1CCCCC1	-6%
COC(=O)c1ccc(N2NC(=O)/C(=C/c3cc(OC)c(O)c(OC)c3)C2=O)cc1	?
CCOC(=O)c1ccc(NC(=S)NNC(=O)C2(C)CC2(Cl)Cl)cc1 (centres undefined)	-18%
CSc1ccc(NC(N)=S)cc1	-19%
